Mtb H37Rv: Confirmatory growth inhibition assay against Mycobacterium tuberculosis H37Rv, potency (AID 1949) | actives 1.6% (n = 100,000) | one-dose inhibition, % at 10 µg/mL; IC50 in µg/mL for titrated hits | most inactive calls were filed without a number and no value below 0 was filed;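 active means confirmed in a dose series; inconclusive means about 50% or more but not retested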;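 further: bacteria grown 7 days with compound before Alamar blue readout; 0% = untreated bacteria and 100% = reference antibiotic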
Starred values were filed as active, the others as inactive; i = inactive; ? = inconclusive. Only part of the results is shown. The share of hits here may be higher or lower than overall.

item | mol | Mtb H37Rv
1 | Cc1ccc(/C=C2/SC(=S)N(CCC(=O)Nc3ccc(F)c(Cl)c3)C2=O)cc1 | i
2 | COc1ccc(CCN2C(=O)CC(Sc3ncccc3C(=O)O)C2=O)cc1OC (centres undefined) | i
3 | CCC(CC)C(=O)Nc1nnc(Cc2ccc(Cl)cc2)s1 | 2%
4 | O=C1N/C(=N/N=C/c2ccco2)SC1Cc1ccc(Br)cc1 (centres undefined) | 47%
5 | COc1cccc2cc(C(=O)c3ccc([N+](=O)[O-])cc3)oc12 | i
6 | COc1cc(NC(=S)NC(=O)c2cc(C)cc(C)c2)ccc1NC(=O)c1ccccc1Cl | i
7 | CC(=O)NC(c1ccc(C(C)C)cc1)c1ccc2ccccc2c1O (centres undefined) | 6%
8 | Nc1cc(N)nc(SCC(=O)Nc2nncs2)n1 | i
9 | Cc1ccc(C(=O)O)cc1NC(=S)NC(=O)c1ccc(C(C)(C)C)cc1 | 8%
10 | Cc1cc(O)ccc1NC(=O)Cn1cnc2c(=O)n(C)c(=O)n(C)c21 | i
11 | CC(=O)c1ccc(NC(=O)CC(NCCC2=CCCCC2)C(=O)O)cc1 (centres undefined) | i
12 | COc1ccc(C)cc1S(=O)(=O)n1nc(C)cc1C | i

Filtered by structure: the entries above with a Cl atom
item | mol | Mtb H37Rv
1 | Cc1ccc(/C=C2/SC(=S)N(CCC(=O)Nc3ccc(F)c(Cl)c3)C2=O)cc1 | i
3 | CCC(CC)C(=O)Nc1nnc(Cc2ccc(Cl)cc2)s1 | 2%
6 | COc1cc(NC(=S)NC(=O)c2cc(C)cc(C)c2)ccc1NC(=O)c1ccccc1Cl | i

(list continues)
item | mol | Mtb H37Rv
13 | Cc1cc(C)n2c(nc3ccccc32)c1C(N)=O | i
14 | COc1ccc(OC(C)c2nc(-c3cccc(C)c3)no2)cc1 (centres undefined) | 12%
15 | Cc1cc(OCc2nc(-c3cccc([N+](=O)[O-])c3)no2)cc(C)c1Br | i
16 | Cc1ccc(C)c(Nc2nc(N)c3ccccc3n2)c1 | 2%
17 | Cc1sc2nc(SCC(=O)Nc3ccccc3)[nH]c(=O)c2c1C | i
18 | Cc1ccc(CNC(=O)CN(C)S(=O)(=O)c2ccccc2)cc1 | i
19 | CC(C)Oc1ccc(C2CC(=O)N(c3ccc(N4C(=O)CC(c5ccc(OC(C)C)cc5)C4=O)cc3)C2=O)cc1 (centres undefined) | i
20 | COC(=O)c1ccccc1NC(=O)c1ccccc1N(Cc1ccccc1)S(=O)(=O)c1ccc(OC)cc1 | 4%
21 | CCOC(=O)CN1C(=O)C(O)(c2c(C)[nH]c3ccccc23)c2ccccc21 (centres undefined) | i
22 | OCC(CO)(CO)NCC(O)CN1c2ccccc2Sc2ccccc21 (centres undefined) | i
23 | CC1(C)CC(=O)c2cc(C(=O)O)c(=O)n(-c3ccccc3)c2C1 | i
24 | N#Cc1c(NC(=O)CN2CCCc3ccccc32)sc2c1CCCC2 | i
25 | COc1ccc([N+](=O)[O-])cc1NC(=O)CCN1CCCC(C)C1 (centres undefined) | i
26 | COc1cc(NC(=O)C(CC(C)C)N2C(=O)c3ccccc3C2=O)c(OC)cc1Cl (centres undefined) | i
27 | Cc1onc(-c2ccccc2)c1C(=O)N1CCN(Cc2ccccc2)CC1 | i
28 | COc1ccc(N2CCN(S(=O)(=O)c3ccc(Oc4ccccc4Cl)cc3)CC2)cc1 | 4%
29 | CC(=O)CC(=O)c1ccc(C(C)C)cc1 | i
30 | CCn1c(SCC(=O)Nc2cc(C)ccc2OC)nnc1-c1ccc(Cl)cc1 | i
31 | CCOc1ccc(N2C(=O)CC(NCCc3c[nH]c4ccccc34)C2=O)cc1 (centres undefined) | i
32 | CCOC(=O)c1cc(CC)sc1NC(=O)COc1ccc2c(C)cc(=O)oc2c1 | i
33 | COc1cc(OC)c(NC(=O)CN(C)S(=O)(=O)c2ccc(C)cc2)cc1Cl | i
34 | COc1ccccc1NC(=O)c1c(NC(=O)COc2ccccc2)sc(C)c1C | i
35 | CC(C)c1cccc(OCC(=O)Nc2ccc(Cl)cc2Cl)c1 | i
36 | CC(Oc1ccc(Br)cc1)C(=O)N1CCN(c2cccc(Cl)c2)CC1 (centres undefined) | 17%

Reformatted: results already given
26) COc1cc(NC(=O)C(CC(C)C)N2C(=O)c3ccccc3C2=O)c(OC)cc1Cl (centres undefined)
  Mtb H37Rv: i

27) Cc1onc(-c2ccccc2)c1C(=O)N1CCN(Cc2ccccc2)CC1
  Mtb H37Rv: i

Remaining list, next part:
item | mol | Mtb H37Rv
37 | COc1ccccc1-c1nc(C#N)c(NCc2ccccc2Cl)o1 | i
38 | COc1cc(C(=O)NC(=S)Nc2c(C)nn(-c3ccccc3)c2C)cc(OC)c1OC | i
39 | COc1ccc(Cl)cc1NC(=S)NNS(=O)(=O)c1ccc(Br)cc1 | i
40 | CCc1ccccc1NC(=O)C(=O)NCCCn1ccnc1 | i
41 | Cc1ccccc1CN1CCN(C(=O)c2cccc3ccccc23)CC1 | i
42 | Cc1oc2cc(O)ccc2c(=O)c1-c1ccc(F)cc1 | 4%
43 | CCOc1cc(C(=O)NNC(=S)NCCCOC)cc(OCC)c1OCC | i
44 | S=c1[nH]nc(-c2cccs2)n1-c1ccccc1 | i
45 | COc1cccc(OC)c1C(=O)Nc1cccc(-c2cc3ccccc3oc2=O)c1 | i
46 | CCc1ccc(C(=O)CSc2nc3ccccc3c(=O)n2C)cc1 | i
47 | O=C(CSc1ncccn1)c1ccccc1 | i
48 | CC(C)Oc1ccc(C(=O)NCc2cccnc2)cc1 | 1%

Five entries picked at random from the list so far, as already listed:
item | mol | Mtb H37Rv
40 | CCc1ccccc1NC(=O)C(=O)NCCCn1ccnc1 | i
44 | S=c1[nH]nc(-c2cccs2)n1-c1ccccc1 | i
47 | O=C(CSc1ncccn1)c1ccccc1 | i
45 | COc1cccc(OC)c1C(=O)Nc1cccc(-c2cc3ccccc3oc2=O)c1 | i
46 | CCc1ccc(C(=O)CSc2nc3ccccc3c(=O)n2C)cc1 | i

(next part)
item | mol | Mtb H37Rv
49 | CCCc1cc2c(cc1NC(=O)c1sc3ccccc3c1Cl)OCO2 | i
50 | O=C(CN1CCCC1)Nc1ccc([N+](=O)[O-])cc1 | i
51 | CCCCC(=O)Nc1ccc(C(=O)NCc2ccncc2)cc1 | i
52 | CCOC(=O)c1sc(NC(=O)COc2cccc(CC)c2)nc1C | i
53 | CC1(C)CC(=O)c2sc(NS(=O)(=O)c3cc(Cl)ccc3Cl)nc2C1 | i
54 | S=C(NC1CC1)NN1CCOCC1 | i
55 | O=C(CN1CCN(Cc2ccccc2)CC1)Nc1ccccc1 | i
56 | CS(=O)(=O)N(CC(=O)N1CCN(c2ccccc2)CC1)c1cc(Cl)cc(Cl)c1 | i
57 | COc1cc(OC)c(OC)cc1CN1CCN(Cc2c[nH]c3ccccc23)CC1 | 3%
58 | Cc1cc(OCCCN2CCN(C)CC2)cc(C(C)C)c1 | i
59 | CC(C)(C)c1csc(NC(=O)Cc2cccs2)n1 | 13%
60 | COc1ccc(Cc2nnc(SCC(=O)Nc3ccc(C)c([N+](=O)[O-])c3)n2C)cc1 | i
61 | COc1ccccc1C(=O)Nc1ccc(C(=O)O)cc1 | 2%
62 | O=[N+]([O-])c1ccc(-c2nnnn2-c2ccccn2)cc1 | 0%
63 | CNS(=O)(=O)Cc1ccccc1Cl | i
64 | CCc1ccccc1NC(=O)CN(c1cccc(Br)c1)S(=O)(=O)c1ccc(C)cc1 | i
65 | COc1ccc2oc(-c3cccc(NC(=O)c4ccc(Br)o4)c3)nc2c1 | i
66 | O=C1CC(c2ccc(F)cc2)CC2=C1C(c1cccs1)n1c(nc3ccccc31)N2 (centres undefined) | i
67 | O=C(O)c1c(-c2ccccc2)c2oc3ccccc3c2[nH]c1=O | 7%
68 | Cc1nnc(SCc2ccc([N+](=O)[O-])cc2)n1-c1ccc(F)cc1 | i
69 | O=c1[nH]c(SCc2nnc(Nc3ccccc3)s2)nc2sc3c(c12)CCC3 | i
70 | CC(=O)NC(c1cccs1)c1ccc2cccnc2c1O (centres undefined) | i
71 | CCc1nnc2c3c4c(sc3ncn12)CCCC4 | i
72 | COCc1nc2ccccc2n1CCCOc1ccc(C)cc1 | 8.2µg/mL*
73 | O=C(CN(C1CCCCC1)S(=O)(=O)c1ccc(Cl)cc1)N1CCCC1 | i
74 | Cc1ccc2c(=O)c(CN3CCOCC3)c(C)[nH]c2c1C | 2%
75 | CC(=O)Nc1ccc(Nc2nc(-c3ccc(C)o3)cs2)cc1 | i
76 | Cc1ccc(-n2c(C)nnc2SCC(=O)Nc2cccc(C(F)(F)F)c2)cc1 | i
77 | COc1ccc(N2C(=O)Cn3c2nc2c3c(=O)n(C)c(=O)n2C)cc1 | i
78 | O=C1CC(C(=O)Nc2cccc(Br)c2)C(c2ccccc2)O1 (centres undefined) | i
79 | CCOC(=O)C1=C(C)NC2=C(C(=O)CCC2)C1c1ccc([N+](=O)[O-])cc1 (centres undefined) | i
80 | Cc1onc(-c2c(Cl)cccc2Cl)c1C(=O)N1CCCC(C)C1 (centres undefined) | i
81 | CCCCC(CC)CNC(=O)C(=O)NCCOC (centres undefined) | i
82 | CCOC(=O)Cc1csc(NC(=O)c2cccc(OC)c2)n1 | i
83 | COc1ccc(NC(=O)CSC2CC(=O)N(c3ccccc3C)C2=O)cc1 (centres undefined) | i
84 | COc1ccc(CSc2nccc(=O)[nH]2)cc1 | i
85 | CCOc1ccc(CN2CCN(C(=O)c3ccccc3)CC2)cc1 | 3%
86 | COc1ccc(CNC(=O)CCC2CCCCC2)cc1 | i
87 | COc1cc([N+](=O)[O-])ccc1NC(=S)Nc1ccc(S(=O)(=O)NC23CC4CC(CC(C4)C2)C3)cc1 | i
88 | O=C1CCC(=O)N1c1ccc(C2(c3ccc(N4C(=O)CCC4=O)cc3)C(=O)Nc3ccccc32)cc1 | i
89 | COc1cccc(OC)c1Oc1ccc(C(F)(F)F)cn1 | i
90 | COc1ccc(Cl)cc1NC(=S)Nc1cccnc1 | i
91 | COc1cc(NC(=S)N2CCC(O)(c3cccc(C(F)(F)F)c3)CC2)c(OC)cc1Cl | 4%
92 | CCCCc1ccc(NC(=O)CN(c2ccc(OC)c(Cl)c2)S(C)(=O)=O)cc1 | 28%
93 | CCN1CCN(c2nc3c(c(=O)n(C)c(=O)n3C)n2Cc2c(F)cccc2Cl)CC1 | i
94 | CCCc1[nH]nc2c1C(c1ccccc1OCc1ccc(Cl)cc1)C(C#N)=C(N)O2 (centres undefined) | 2%
95 | CCC(C)c1ccc(N2CC(C(=O)Nc3ccc(OC)cc3)CC2=O)cc1 (centres undefined) | i
96 | Cc1cc(C(F)(F)F)nn1Cc1ccc(C(=O)NCc2ccco2)o1 | 0%
97 | CN(CC(=O)Nc1ccc(OCc2ccccc2)cc1)S(=O)(=O)c1ccc(Br)cc1 | 0%
98 | COc1ccccc1C1(CC(=O)O)CCOC(C(C)C)C1 (centres undefined) | i
99 | Cc1ccc(C(=O)NCc2nnc(SCC(=O)Nc3c(F)cc(F)cc3Br)n2C)cc1 | i
100 | CCN1CCN(c2c(Cl)cccc2NC(=S)NC(=O)c2ccc(C)cc2Cl)CC1 | ?
101 | CCC(C)C(=O)Nc1ccccc1C(=O)O (centres undefined) | 6%
102 | O=C(/N=C1/NC(=O)C(F)(C(F)(F)F)S1)Nc1ccc(Cl)c(Cl)c1 (centres undefined) | 0%
103 | O=C(CSc1ccccc1)Nc1ccc(Br)cc1F | i
104 | COc1cc([N+](=O)[O-])ccc1NC(=O)CCCOc1cc(C)ccc1C | i
105 | CN1CCN(C(=O)CN(C2CCCCC2)S(C)(=O)=O)CC1 | 1%
106 | CNC(=O)COc1ccc(-c2nn(C)c(=O)c3ccccc23)cc1 | i
107 | CCCC(=O)Nc1ccccc1NC(=O)c1cccs1 | i
108 | COC(=O)c1ccc(NS(=O)(=O)c2ccc(SC)cc2)cc1 | i

Values by screen from above:
Mtb H37Rv for entries 100–108 → ?, 6%, 0%, i, i, 1%, i, i, i

Carrying on:
item | mol | Mtb H37Rv
109 | COc1ccc(S(=O)(=O)N(C)CC(=O)N2CCCC2)cc1Cl | i
110 | COc1cccc(NC(=O)Nc2ccc3c(c2)nc(C)n3C)c1 | i
111 | COc1ccccc1CNC(=O)C(C)Sc1ccc(C)cc1 (centres undefined) | i
112 | CN(C(=O)Nc1ccc(OC(=O)N(C)c2ccccc2)cc1)c1ccccc1 | i
113 | Cc1cc(C)nc(SC(C)C(=O)Nc2ccc(S(N)(=O)=O)cc2)n1 (centres undefined) | i
114 | CCN(CC)S(=O)(=O)c1cccc(C(=O)NCc2cccnc2)c1 | i
115 | CCOC(=O)c1c(-c2ccc(F)cc2)csc1NC(=O)c1ccc2c(c1)OCO2 | i
116 | COc1ccc(S(=O)(=O)Nc2ccc(Br)cc2C)cc1C | i
117 | C=CCn1c(COc2ccc(C(C)C)cc2)nnc1SCC(=O)N1CCN(c2ccccc2)CC1 | i
118 | COC1(c2ccccc2)OC(=O)c2ccccc21 (centres undefined) | i
119 | O=C(Nc1ccc(S(=O)(=O)NCCc2ccccc2)cc1)c1cccs1 | i
120 | CC1c2[nH]c3ccccc3c2CCN1S(C)(=O)=O (centres undefined) | i
121 | CCOC(=O)C1=C(C)NC(=S)NC1c1ccccc1F (centres undefined) | i
122 | Fc1ccc(N2CCN(C(=S)Nc3ccccc3C(F)(F)F)CC2)cc1 | i
123 | O=C(NC(=S)Nc1ccc(N2CCCCC2)cc1)c1ccc(Br)cc1 | 32%
124 | CCc1nnc(NC(=O)c2ccccc2NC(=O)c2sc3ccccc3c2Cl)s1 | i
125 | Cc1ccc(-c2cc(C(F)F)n3ncc(C(=O)Nc4cn(C)nc4C)c3n2)cc1 | i
126 | CC(=O)OC(C)c1ccc2c(c1)OCCO2 (centres undefined) | 6%
127 | CCN(C(=O)c1ccc(F)cc1)C1C2CC3CC(C2)CC1C3 (centres undefined) | i
128 | Cc1cc(C)cc(C(=O)Nc2sc3c(c2C(N)=O)CCC3)c1 | i
129 | Cc1ccc2nc(NC(=O)c3sc4cc(C)ccc4c3Cl)sc2c1 | i
130 | CNC1(c2nnnn2CCOC(=O)Nc2ccc(Cl)cc2)CCCC1 | i
